Source: PubChem BioAssay
RAD52 anneal inh: blocks human RAD52 DNA annealing | recombinant RAD52 DNA annealing, FRET fluorescence | inhibition, % at 18.7 µM | P43351 | actives 0.46% (n = 360,000);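 active means every replicate showing at least 50% inhibition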
S100A4 MyoIIA: blocks human S100A4 binding to myosin IIA peptide | P26447 | S100A4/TAMRA-MyoIIA peptide fluorescence polarization | inhibition, % at 10.7 µM | actives 0.14% (n = 360,000);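 active means mean inhibition of at least 70% across replicates, with every replicate also reaching that level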
Target sequence (P26447 whole entry, looked up): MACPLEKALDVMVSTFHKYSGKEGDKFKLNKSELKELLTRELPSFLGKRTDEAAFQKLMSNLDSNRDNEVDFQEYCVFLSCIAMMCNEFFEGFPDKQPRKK
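incubation = readout 5 min after mixing, signal stable up to 60 min | system = S100A4 monomer protein | buffer or medium = HEPES pH 7.2 with CaCl2, KCl, NaCl, DTT, Triton | benchmarks = neutral control DMSO, positive control TFP | also added = fluorescent myosin IIA peptide, 5 nM | compound dosing = one concentration per compound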
E-selectin induc: induces E-selectin expression in human endothelial cells; activation, % at 7.58 µM; actives 0.37% (n = 260,000); HUVEC E-selectin immunofluorescence imaging; normalized: neutral wells 0, TNF-alpha wells 100; AID 686992;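 active means mean E-selectin-positive cell signal at least 10% of the positive control, reached in at least 60% of replicates, without over 20% cell loss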;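 further: in these data hits start at about 27%; measured in HUVEC primary endothelial cells; signal is the percent of cells scored E-selectin positive by PE staining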
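Assay system: HUVEC, human umbilical vein endothelial cells / Amount: 3,000 HUVEC/well / Controls: TNF-alpha positive control, DMSO neutral control / Compound dosing: single concentration / Medium: EGM-2 over gelatin coat / Evaluation: percent E-selectin-positive cells / Signal: immunofluorescence imaging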
RAD54 inh: RAD54 (human) branch migration inhibition; Q92698; RAD54 Holliday junction branch migration, FAM/BHQ fluorescence; inhibition, % at 10.4 µM; actives 0.14% (n = 360,000);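 active means mean normalized replicate activity at least 40 and at least half of replicates scoring 40 or more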;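 further: 0% = median of neutral control wells and 100% = median of positive control wells; inhibitors cause a drop in the FAM fluorescence signal; in these data hits start at about 50%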
An asterisk follows results filed as active; nt = no result given; & = joins results of further samples. The list is partial (hit frequency here may not be typical).

cpd	smiles	RAD52 anneal inh	S100A4 MyoIIA
1	CN(C)C(=O)c1cccc(COc2ccc(N3C(N)=NC(N)=NC3(C)C)cc2Cl)c1	-2	-2
2	O=C1NC(=S)SC1=Cc1ccccn1	-40	9
3	COc1cccc(N2CCN(CC(=O)Nc3ccc(-n4cnnn4)cc3)CC2)c1	-11	-3
4	COc1cccc(C(=O)Nc2cc3c(cc2N2CCCC2)n(C)c(=O)n3C)c1	-14	-7
5	COc1ccc(C2NCCc3cc(OC)c(OC)cc32)cc1OC (stereo not given)	nt	nt
6	N#Cc1ccc(OCCCN2CCC(C(O)(c3ccccc3)c3ccccc3)CC2)cc1	18	3
7	Cc1nn(-c2ccccc2)c(Cl)c1/C=N/NC(=O)c1ccncc1	0	-3
8	C[C@@H]1CN([C@H](C)CO)C(=O)c2cc(NC(=O)Nc3ccccc3)ccc2O[C@@H](C)CCCCO[C@@H]1CN(C)S(=O)(=O)c1ccc(F)cc1	nt	nt
9	Cc1ccccc1-c1cccc([C@@H]2C[C@H]3[C@H](CON3C)CN2Cc2ccccc2)c1	-10	28
10	CC(C)(C)c1ccc(-n2ncc3c2CCCC3NC(=O)CCN2CCCC2=O)cc1 (stereo not given)	-1	1
11	CN[C@H]1CC[C@@H](c2ccc(Cl)c(Cl)c2)c2ccccc21	41&46	1&0
12	Cc1ccccc1C(=O)N/N=C/c1ccc(Sc2ccccn2)o1	nt	nt
13	COc1ccc(C[C@H](C)NC[C@@H](O)c2ccc(O)c(NC=O)c2)cc1	-11	3

cpd	E-selectin induc	RAD54 inh
1	0.6	-1
2	-0.4	13
3	4.0	-2
4	nt	-4
5	nt	2
6	-0.1	nt
7	-0.3	nt
8	7.8	-5
9	nt	-16
10	nt	-6
11	0.2&3.0	16&3
12	-0.3	nt
13	-0.2	5

Entries from the list above with four or more nitrogen atoms (six):
cpd	smiles	RAD52 anneal inh	S100A4 MyoIIA
1	CN(C)C(=O)c1cccc(COc2ccc(N3C(N)=NC(N)=NC3(C)C)cc2Cl)c1	-2	-2
3	COc1cccc(N2CCN(CC(=O)Nc3ccc(-n4cnnn4)cc3)CC2)c1	-11	-3
4	COc1cccc(C(=O)Nc2cc3c(cc2N2CCCC2)n(C)c(=O)n3C)c1	-14	-7
7	Cc1nn(-c2ccccc2)c(Cl)c1/C=N/NC(=O)c1ccncc1	0	-3
8	C[C@@H]1CN([C@H](C)CO)C(=O)c2cc(NC(=O)Nc3ccccc3)ccc2O[C@@H](C)CCCCO[C@@H]1CN(C)S(=O)(=O)c1ccc(F)cc1	nt	nt
10	CC(C)(C)c1ccc(-n2ncc3c2CCCC3NC(=O)CCN2CCCC2=O)cc1 (stereo not given)	-1	1

cpd	E-selectin induc	RAD54 inh
1	0.6	-1
3	4.0	-2
4	nt	-4
7	-0.3	nt
8	7.8	-5
10	nt	-6
